GIV Gai3 FP: inhibitors of GIV peptide binding to Galpha-i3, primary screen, biochemical, fluorescence polarization, FITC-GIV GBA peptide, rat Galphai3 | Guanine nucleotide-binding protein G(i) subunit alpha-3 (Rattus norvegicus), P08753 | 90 min; hits give low values; scaled: aluminum fluoride 0%, vehicle 100% | percent of control (FP), % (test concentration not listed) | hit rate 0.42% among 210,000;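 active = replicate mean at 85% of control or lower, very high polarization wells dropped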;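 note: wells of about 15 µL received 100 nL stock; the first replicate is given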
Target sequence (P08753 whole entry, looked up): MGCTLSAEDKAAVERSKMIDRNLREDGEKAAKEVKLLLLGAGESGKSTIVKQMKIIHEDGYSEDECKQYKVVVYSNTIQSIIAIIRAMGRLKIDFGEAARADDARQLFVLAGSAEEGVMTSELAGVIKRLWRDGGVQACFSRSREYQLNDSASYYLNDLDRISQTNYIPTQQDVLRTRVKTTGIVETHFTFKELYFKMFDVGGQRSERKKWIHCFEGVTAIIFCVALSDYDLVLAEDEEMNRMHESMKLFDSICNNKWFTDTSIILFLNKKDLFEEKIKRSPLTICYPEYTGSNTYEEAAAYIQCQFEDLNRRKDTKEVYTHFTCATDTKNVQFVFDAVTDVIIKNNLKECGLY
Sa growth inh: S. aureus growth inhibition at 42 and 30 °C, primary screen, LtaS inhibitor project, RN4220, two temperatures; OD600, 20 h, 42 °C; hits give low values; relative growth, % (no concentration beside the values); hit rate 0.53% among 170,000; AID 720641, 2013;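 active = growth at 42 °C up to 50% and 20 or more points under that at 30 °C, or under 10% at both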;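 note: 300 nL library stock went into each well; scaled to the means of positive and negative controls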
HCMV UL50-53 inh: inhibitors of HCMV UL50-UL53 interaction, biochemical, HTRF; HCMV UL50-UL53 nuclear egress complex (human cytomegalovirus); normalized percent inhibition; inhibition, % (no concentration beside the values); hit rate 0.15% among 190,000;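 active = both replicates at 50% or more, plus weaker picks with an unusually low signal ratio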;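 note: stock transfer was 100 nL into about 20 µL; 0% = negative control wells and 100% = wells with untagged competitor protein; inactives centre near -12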
Sa growth inh second temp: recorded beside Sa growth inh, whose call it bears; relative growth, %; measured here: growth at 30 °C;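 optical density after 20 h as mean of two plates; 100% = untreated growth and lower means inhibition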
Numbers without * were called inactive; nt = not tested or not shown; & = joins results of further samples.

Fields – Sa growth inh, Sa growth inh second temp, GIV Gai3 FP, HCMV UL50-53 inh
COc1ccc(NC(=O)CC2Oc3ccc(C)cc3NC2=O)cc1Cl (stereo unspecified)
  105, 79, 96, -15
COc1ccc(CNC(=O)c2cnc(OC)cc2C(F)(F)F)cc1
  114, 80, 104, -6
CCC(CC)N=C1NS(=O)(=O)c2ccccc21
  88, 85, 104, 0
CCn1cc(C(=O)N2CCN(c3cc(C)ccc3C)CC2)c(=O)c2cc(S(=O)(=O)N3CCCCC3)ccc21
  106, 94, 98, -14
COc1cc(C(F)(F)F)nc2ccc(C)c(NC(=O)c3ccccc3)c12
  106, 88, 110, -11
O=C(NCCCn1cccc1)c1c(F)cccc1F
  89, 80, 99, -7
CNc1ccccc1C(C)(C)c1[nH]ncc1-c1ccc(F)cc1
  87, 80, nt, -30
CSc1nc2[nH]c(=O)cc(O)c2s1
  111, 83, 97, nt
CCN1CCN(C(=O)c2cccc(OC(F)F)c2)CC1
  102, 99, nt, 19
C=CCn1c(NS(=O)(=O)c2ccccc2)c(C#N)c2nc3ccccc3nc21
  81, 85, nt, 65*
O=C1CC2(CCCCC2)Oc2c1ccc(O)c2O
  nt, nt, 104, -5
CC(C)(C)OC(=O)N1CCN(c2nc(-c3ccccc3)c3cc([N+](=O)[O-])ccc3n2)CC1
  nt, nt, 96, -5
Cc1ccc(/C=C/c2onc(C)c2S(=O)(=O)N2CCC(C(=O)N3CC(C)Oc4ccccc43)CC2)cc1 (stereo unspecified)
  122, 107, 99, nt
Cc1ccc(C=N/C(=N\NC(=O)c2ccccc2)c2ccccc2)o1
  81, 65, 96, -1
CCOc1ccc(NC(=S)NCCCO)cc1
  93, 90, 104, -14
CC(NC(=O)c1ccc(C(C)(C)C)cc1)c1ccccc1 (stereo unspecified)
  87, 105, nt, 0
O=C(Cn1ncc(Cl)c(Cl)c1=O)NCC1CCCO1 (stereo unspecified)
  113, 67, nt, -52
CCOC(=O)CNC(=O)CC(c1cc(OC)c(OC)c(OC)c1)N1Cc2ccccc2C1=O (stereo unspecified)
  133, 93, 106, nt
COc1ccc(-c2nc3sc(CCNC(=O)C(=O)Nc4cccc(NC(C)=O)c4)c(C)n3n2)cc1
  110, 77, 103, nt
Clc1ccc(Nc2c(-c3cccs3)nc3ccc(Cl)cn23)cc1
  85, 92, 99, 0
O=C(Cn1c(=O)oc2cc(S(=O)(=O)N3CCc4ccccc43)ccc21)NC1CCCCCC1
  104, 81, 104, -2
CC(C)(C)c1nnc(N)s1
  69, 91, nt, 8
Cn1c(=O)c2sccc2n2c(CCCC(=O)N3CCCCC3)nnc12
  93, 84, 99, nt
COc1cccc(/C=C2\N=C(c3c(-c4ccccc4)noc3C)OC2=O)c1
  91, 92, 107, 1
COCCn1c(CCC(=O)NCc2ccc(C)cc2)nc2cccnc21
  109, 85, 103, -14
CC(C)N(Cc1nnc(-c2ccccc2Cl)o1)C(=O)C1=CC=CN2CCS(=O)(=O)N=C12
  84, 95, nt, -16
c1ccc(CNc2ccc(N3CCCCC3)nn2)cc1
  102, 77, 103, nt
CCCn1c(C)cc(C(=O)COC(=O)c2ccc(C#N)cc2)c1C
  102, 96, nt, 10
CC(C(=O)Nc1ccccc1)n1nc(-c2ccccc2)ccc1=O (stereo unspecified)
  138, 103, 106, -4
NC(=O)CN1CCC(N2CCCCC2)CC1
  82, 92, 97, 5
COc1cccc(C(=O)Nc2ccc(O)c(-c3nc4ccccc4s3)c2)c1
  nt, nt, 91, -17
CC(Sc1nc2ncccc2[nH]1)C(=O)Nc1ccc(F)cc1 (stereo unspecified)
  90, 79, 100&95, -30&-2
Cc1noc(-c2ccc(NC(=O)c3ccccc3)cc2)n1
  nt, nt, 104, -1
CCOC(=O)c1ccc(NC(=O)Cn2nnc(-c3ccc(C(F)(F)F)cc3)n2)cc1
  105, 78, 102, -4
N#Cc1nc(-c2ccccc2F)oc1NC1CC1
  84, 78, 98, -4
O=C(c1ccco1)N1CCN(c2c3c(nc4cc(-c5cccc(F)c5)nn24)CCCC3)CC1
  111, 75, 98, -3
COc1ccccc1-c1noc(-c2ccc(NCc3ccccc3)c([N+](=O)[O-])c2)n1
  83, 90, 99, -8
Cc1ccc(CNC(=O)Cn2ccn3nc(-c4ccc5c(c4)OCO5)cc3c2=O)cc1
  nt, nt, 106, -30
Cc1cc(=O)[nH]c2sc(C(=O)N3c4ccccc4CC3C)c(N)c12 (stereo unspecified)
  134, 90, nt, -14
O=C(/C=C/c1ccco1)OCC(=O)c1cc2c3c(c1)CC(=O)N3CCC2
  114, 88, nt, -54
COc1ccc(-n2cc(C(=O)NCCc3ccc(C)cc3)c3ccccc3c2=O)cc1
  95, 100, 104, nt
COC(=O)c1sc(OC)c(C(F)(F)F)c1O
  120, 83, nt, -8
c1ccc2c(c1)CCCC2Nc1ncnc2c1nc1n2CCCCC1 (stereo unspecified)
  105, 87, 105, -33
Cc1cc2oc(=O)cc(C)c2c(=O)[nH]1
  88, 92, nt, -22
Cc1ccc(-n2nnc(C(=O)O)c2C)cc1C
  nt, nt, 103, -28
Cc1cc(C)cc(OCC(=O)N2CCCC2)c1
  92, 89, nt, -27
NC(=O)c1ccsc1NC(=O)CSc1ncnc2sc3c(c12)CCCC3
  94, 91, nt, 0
Cc1cn2c(=O)cc(COc3ccc(NC(=O)C(C)(C)C)cc3)nc2s1
  nt, nt, 102, -20
CC1(C)C2CCC1(C(=O)O)C(=O)C2 (stereo unspecified)
  82, 93, 103, 3
CC1CCN(CCNC(=O)c2ccc(Cn3c(SCc4ccccc4)nc4cccnc43)cc2)CC1
  107, 84, 102&102, -58&-36
CCn1nc(C)c(CCN(C)C(=O)Nc2ccc(F)cc2F)c1C
  nt, nt, 103, -16
Cc1ccc2[nH]c3c(=O)n(CC(=O)NCc4ccco4)ncc3c2c1
  91, 80, 111, nt
COC(=O)C(Cc1c[nH]c2ccccc12)NC(=O)C(Cc1ccccc1)NS(=O)(=O)c1ccc(C)cc1 (stereo unspecified)
  nt, nt, 110, 20
COc1ccc(Cl)cc1NC(=O)c1ccc2nc(Cc3ccccc3)oc2c1
  90, 89, 100, nt
O=C(Nc1ccc(Cl)cc1)Nc1ccc(N2CCN(c3ncccc3C(F)(F)F)CC2)nc1
  106, 87, 105, nt
COc1cc(C2C3=C(CC(C)(C)CC3=O)OC3=C2C(=O)CC(C)(C)C3)ccc1OC(=O)N(C)C
  nt, nt, 106, -4
O=S(=O)(/C=C/c1ccccc1)NCc1ccco1
  99, 77, nt, -33
COc1cc(NC(=O)CSc2cc(=O)n(C)c3ccccc23)cc(OC)c1OC
  106, 93, 105, -23
CC(C(=O)Nc1ccc(C#N)cc1)N1CCN(S(=O)(=O)/C=C/c2ccccc2)CC1 (stereo unspecified)
  103, 94, nt, -3
C=CCn1c(=N)n(CC(=O)C(C)(C)C)c2ccccc21
  80, 79, 106, -6

Ordered by heavy-atom count (largest number first): 15 of the compounds above
Fields – Sa growth inh, Sa growth inh second temp, GIV Gai3 FP, HCMV UL50-53 inh
CC1CCN(CCNC(=O)c2ccc(Cn3c(SCc4ccccc4)nc4cccnc43)cc2)CC1
  107, 84, 102&102, -58&-36
COc1cc(C2C3=C(CC(C)(C)CC3=O)OC3=C2C(=O)CC(C)(C)C3)ccc1OC(=O)N(C)C
  nt, nt, 106, -4
O=C(c1ccco1)N1CCN(c2c3c(nc4cc(-c5cccc(F)c5)nn24)CCCC3)CC1
  111, 75, 98, -3
COc1ccc(-n2cc(C(=O)NCCc3ccc(C)cc3)c3ccccc3c2=O)cc1
  95, 100, 104, nt
CC(C(=O)Nc1ccc(C#N)cc1)N1CCN(S(=O)(=O)/C=C/c2ccccc2)CC1 (stereo unspecified)
  103, 94, nt, -3
COc1ccc(Cl)cc1NC(=O)c1ccc2nc(Cc3ccccc3)oc2c1
  90, 89, 100, nt
COc1cccc(C(=O)Nc2ccc(O)c(-c3nc4ccccc4s3)c2)c1
  nt, nt, 91, -17
Cc1cn2c(=O)cc(COc3ccc(NC(=O)C(C)(C)C)cc3)nc2s1
  nt, nt, 102, -20
CCn1nc(C)c(CCN(C)C(=O)Nc2ccc(F)cc2F)c1C
  nt, nt, 103, -16
CC(Sc1nc2ncccc2[nH]1)C(=O)Nc1ccc(F)cc1 (stereo unspecified)
  90, 79, 100&95, -30&-2
Cc1noc(-c2ccc(NC(=O)c3ccccc3)cc2)n1
  nt, nt, 104, -1
C=CCn1c(=N)n(CC(=O)C(C)(C)C)c2ccccc21
  80, 79, 106, -6
O=S(=O)(/C=C/c1ccccc1)NCc1ccco1
  99, 77, nt, -33
Cc1ccc(-n2nnc(C(=O)O)c2C)cc1C
  nt, nt, 103, -28
Cc1cc2oc(=O)cc(C)c2c(=O)[nH]1
  88, 92, nt, -22

Later entries
Fields – Sa growth inh, Sa growth inh second temp, GIV Gai3 FP, HCMV UL50-53 inh
CN1C(=O)/C(=N\N=c2\sc3ccccc3n2C)c2ccccc21
  80, 100, nt, 5
CCN(CC)S(=O)(=O)c1ccc(NCC(=O)Nc2ccc(S(=O)(=O)N(C)C)cc2)cc1
  102, 89, nt, -14
O=c1[nH]c(=O)c2nc3cc(C(F)(F)F)ccc3nc2[nH]1
  2.5*, 8.2*, 86, -140
Cc1cccc(NC(=O)c2c(C)cc(C)nc2SCC(=O)NC(C)(C)C)c1
  nt, nt, 107, -1
Cc1ccc(-n2c(SCC(=O)Nc3cccc(Cl)c3)nc3n[nH]c(C)c3c2=N)cc1
  86, 76, 103, nt
COc1ccc(C(=O)N2CC(=O)Nc3ccc(C)cc3C2c2ccccc2)c(OC)c1 (stereo unspecified)
  80, 89, 103, -32
CCC(=O)Nc1ccccc1-c1nnc(SC(CC)C(=O)Nc2ccc(CC)cc2)[nH]c1=O (stereo unspecified)
  nt, nt, 101, 0
COc1cc(C2Nc3ccccc3-c3nnc(SCc4ccc(Cl)cc4)nc3O2)ccc1OCC(=O)O (stereo unspecified)
  98, 55, 107, -33
c1ccc2c(c1)nc(N1CCN(C3CCCCC3)CC1)n1cnnc21
  nt, nt, 109, -11
COc1cccc(NC(=O)c2csnn2)c1
  96, 83, 103, -16
O=C(CCn1nc(-c2ccc(Cl)cc2)ccc1=O)NCCc1ccccc1
  112, 85, 100, nt
CC(C)Oc1ccc(C(=O)Nc2c(C(=O)Nc3cccc(F)c3)oc3ccccc23)cc1
  113, 89, 105, -22
Cc1ccc(-n2[nH]c3ncccc3c2=O)cc1
  nt, nt, 109, -18
CNC(=O)CNC(=O)c1ccccc1
  97, 93, nt, -15
COc1ccc(C(=O)c2ccccc2)cc1
  78, 83, 107, nt
O=C(CSc1nnc(-c2cccnc2)o1)OC1CCCCC1
  94, 102, 102, -7
O=C(CNC(=O)OCc1ccccc1)ON1C(=O)CCC1=O
  88, 85, 101, -34
CN1CC(=O)N/C1=N\C(=O)Nc1cccc(Cl)c1
  nt, nt, 93, -27
O=C(CNC(=O)c1ccc(Cl)cc1)OCc1cc(=O)n2ccsc2n1
  85, 88, 103&104, -39
CCCNC(=O)C1CCN(c2ccc(Cl)cc2)C1=O (stereo unspecified)
  nt, nt, 102, -20
O=C(NCc1ccco1)c1scc2c1OCCO2
  101, 91, nt, -5
Cc1c(C#N)c(NC(=O)CN(C)CC(=O)Nc2ccc(F)c(F)c2F)n(Cc2ccco2)c1C
  99, 76, nt, -21
CS(=O)(=O)N1CCc2cc(C(=O)Nc3ccc(S(N)(=O)=O)cc3)ccc21
  99, 93, 96&106, 2&-9
O=C(CSc1nc(-c2cccs2)cc(C(F)(F)F)n1)NCc1ccncc1
  97, 82, 100, nt
O=c1[nH]c(-c2ccccc2)c(-c2ccccc2)[nH]1
  118, 78, 98, -12
Cc1nc(-n2[nH]c(C)c(CC(=O)N3CCN(c4ccc(F)cc4)CC3)c2=O)sc1C
  nt, nt, 98, -25
Cc1ccc(Cl)cc1NS(=O)(=O)C1CCS(=O)(=O)C1 (stereo unspecified)
  nt, nt, 104, -19
COc1cccc(/C=N/NC(=O)Cc2ccccc2)c1
  105, 99, 107, -24
Cc1cccc(Cn2c(CCNC(=O)C(C)(C)C)nc3ccccc32)c1
  125, 83, 107, nt
C=Cc1ccc(COc2ccccc2-c2nnc(-c3ccccc3)o2)cc1
  nt, nt, 101, -23
S=C(NCc1ccccc1)NCC(c1cccnc1)N1CCOCC1 (stereo unspecified)
  88, 84, 101, -31
CN(C)S(=O)(=O)c1cccc(C(=O)OCC(=O)NC2CC2)c1
  94, 89, nt, -1
CCC(Oc1ccccc1)C(=O)Nc1ccc2oc(-c3ccc(OC)cc3)nc2c1 (stereo unspecified)
  99, 86, 104, 4
COc1ccc(CNC(=O)c2ccc(CS(=O)(=O)c3ccc(Br)cc3)o2)cc1
  37, 48, 103, nt
CCCN(CCC)CCCNC(=O)Cn1ncc2c3ccccc3n(Cc3ccccc3F)c2c1=O
  92, 87, 107, -2

Bioassay records deposited in PubChem by ICCB-Longwood Screening Facility, Harvard Medical School.
